HSD17B inhib = inhibitors of human HSD17B10 dehydrogenase; recombinant HSD17B10, NADH fluorescence kinetic; many of its hits are not listed in these tables; hit rate 7.6% among 75,000; Potency, µM (highest dose often 57.1 µM), without a hit: top-dose activity change, negative = inhibition, actives largely listed as inhibitors; Q99714; active means well fitted inhibition curve with a large enough effect; inconclusive means small, poorly fitted or top-dose-only effect; inactive means no such curve, though single readings can be large or run the other way;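 further: the protocol describes HADH2 (HSD17B10) and not the HSD17B4 of the title; nearly all actives have a fitted effect of over 70% in size; most hits overshoot -100% by far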
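His-tagged E. coli-expressed HADH2 at 20 nM in 100 mM Tris-HCl pH 9.0 with 0.01 % Tween-20, preincubated 15 min with compound at room temperature. Reaction with 1 mM NAD+ and 90 uM beta-hydroxybutyryl coenzyme A; NADH fluorescence (360/450 nm) read kinetically over 4 min, last minus first point.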
The depositor's hits bear a star; u = inconclusive; & = joins results of further samples; [ ] = dose if it differs, or a comment. On the % scale 0 is the no-effect control and ±100 the full control effect; potency means the concentration at half of the fitted maximal effect. Not all compounds are listed (hit frequency here may not be typical).

SMILES	HSD17B inhib
O=C(Cc1ccccc1)Nn1cnc2ccccc21	5.5%
O=C(Cn1nnc2ccccc21)C1CC1	1.4%
Cc1ccc(NC2=NC(c3ccc(O)cc3)n3c(nc(C)cc3=O)N2)cc1 (stereo not drawn)	3.1%
Cc1ccccc1-c1nc(NC2CC2)c2ccccc2n1	-5.6%
CCOC(=O)N1CCN(c2ncnc3nc[nH]c23)CC1	7.5%
O=C(Cc1nn[nH]n1)NCCC1=CCCCC1	14.0%
CC(c1ccco1)N(C(=O)COc1ccc(Cl)cc1)c1ccccn1 (stereo not drawn)	-3.4%
CS(=O)(=O)N(CC(=O)N1CCN(Cc2ccccc2)CC1)C1CCCCC1	3.0%
CCc1ccc(C2C(C#N)=C(N)SC(N)=C2C#N)s1	u
CNc1nc(-c2ccoc2)nc2ccccc12	-2.8%
Cn1c(C(=O)NCCCN2CCN(c3cccc(Cl)c3)CC2)cc2c(=O)n(C)c3ccccc3c21	u
O=C(c1ccco1)N1CCC2(CC1)CCN(c1cccc(-c3ccccc3)c1)CC2	-12.3%
COc1ccccc1NC(=O)C1=C(C)Nc2ncnn2C1c1cccs1 (stereo not drawn)	2.3%
Cc1ccccc1-c1ccc2ncnc(NCc3cccnc3)c2c1	u
CNC(CC(=O)O)C(=O)O (stereo not drawn)	-1.9%
CC(NC(=O)Nc1ccc(F)cc1F)c1ccncc1 (stereo not drawn)	-5.0%
CCOC(=O)C1CCN(c2ncnc3nc[nH]c23)CC1	10.6%
[O-]/[N+](=C/c1ccc(F)cc1)c1ccccc1	-14.2%
Cc1ccc2oc(C(=O)Nc3c(C)n(C)n(-c4ccccc4)c3=O)c(C)c2c1	2.1%
C[C@@H](C(=O)Cc1ccc2ccccc2c1)[C@@H]1C[C@@]1(C)[C@@H](NP(=O)(c1ccccc1)c1ccccc1)c1ccccc1	9.6%

Overlap with the part before: two entries, followed by the next part.
SMILES	HSD17B inhib
Cc1ccc2oc(C(=O)Nc3c(C)n(C)n(-c4ccccc4)c3=O)c(C)c2c1	2.1%
C[C@@H](C(=O)Cc1ccc2ccccc2c1)[C@@H]1C[C@@]1(C)[C@@H](NP(=O)(c1ccccc1)c1ccccc1)c1ccccc1	9.6%
CCCCC(=O)Nc1ncc(Br)s1	0.5%
O=C(Nc1ccc2c(c1)OCO2)Nc1cnccn1	-3.0%
COc1ccc(S(=O)(=O)N(C)c2ccc(C(=O)NCC3CCCO3)cc2)cc1 (stereo not drawn)	10.4%
Cc1[nH]nc2c1C(c1ccc(F)cc1)C(C#N)=C(N)O2 (stereo not drawn)	-12.3%
Nc1c(C(O)(C(F)(F)F)C(F)(F)F)ccc2ccccc12	31.6µM*
O=C(O)CNC(=O)c1ccccc1F	0.0%
C=C(C)CSc1nnc(-c2ccc(OC)c(OC)c2)n1N	11.5%
COCCOC(=O)c1c(C)oc2ccc(OCC=C(C)C)cc12	-13.0%
CSC1=NCCN1C(=O)c1ccc(S(=O)(=O)N2CCOCC2)cc1	0.9%
Clc1ccccc1Cn1nnc(-c2cccs2)n1	-4.2%
O=C(NC1(C(F)(F)F)NC(=O)N(C2CCCCC2)C1=O)c1cccs1 (stereo not drawn)	10.9%
O=C(Cc1cccs1)Nc1ccc(C(=O)O)cc1	0.5%
COc1ccc(N2CCCCn3c2nc2c3c(=O)[nH]c(=O)n2C)cc1	-8.5%
C#CC1(O)CC(C)NCC1(C)CCC#N (stereo not drawn)	14.3%
COc1cc(C2C(C(C)=O)=C(O)C(=O)N2CCc2ccc(OC)c(OC)c2)ccc1O (stereo not drawn)	-1.0%
O=C(O)COc1ccc(Br)cc1/C=N/O	-6.7%
CCOc1ccc(NC(=O)CCS(=O)(=O)c2cccc3nsnc23)cc1	-4.9%
CC1CCCN(C(=O)C2CCN(CCCc3ccccc3)CC2)C1 (stereo not drawn)	3.0%
COc1ccc2cc3cc(C(=O)NCCN4CCN(Cc5ccccc5)CC4)oc3nc2c1	12.6µM*
CC(C)(C)c1ccc(OCC2CO2)cc1 (stereo not drawn)	1.0%

Of the compounds above, 2 have bromine.
SMILES	HSD17B inhib
CCCCC(=O)Nc1ncc(Br)s1	0.5%
O=C(O)COc1ccc(Br)cc1/C=N/O	-6.7%

Other structures follow:
SMILES	HSD17B inhib
CCS(=O)(=O)N1CCC(C(=O)NCc2ccc(F)cc2)CC1	5.4%
CCNc1nnc(-c2ccc(C)cc2)o1	31.6µM*
Cn1c(SCc2cccnc2)nc2cccnc21	6.3%
Clc1ccc(-c2nnc3sc(-c4ccc(Br)o4)nn23)cc1	0.1%
COCCCN(C(C)=O)c1nc(-c2ccc(OC)cc2)cs1	5.1%
CCc1cccc(CC)c1NC(=O)CSc1nnc(C(C)C)n1CC	-1.2%
Cc1c(NC(=O)C2CCCN(S(=O)(=O)c3cnc[nH]3)C2)c(=O)n(-c2ccccc2)n1C (stereo not drawn)	5.5%
CCOC(=O)Cc1csc(NC(=O)c2ccco2)n1	2.7%
C=CCn1cc(C(=O)NCCCOCC)c(=O)c2cc(S(=O)(=O)N(CC)CC)ccc21	u
O=c1c(-c2ccc(F)c(F)c2)nc2cncnc2n1C1CC1	3.6%
CC(C)(O)CCC(C)(C)O	3.9%
CCS(=O)(=O)N(C)[C@@H]1c2cc(C#N)ccc2OC(C)(C)[C@H]1O	-6.7%&0.3%
COc1cc(NC(=O)CSc2nnc(C)s2)cc(OC)c1	9.3%
CCOc1cccc(OCCCCN2CCCCC2)c1	1.8%
O=c1c2nnn(Cc3ccccc3)c2ncn1-c1ccccc1	-0.4%
COC(=O)CN(c1ccccc1)S(=O)(=O)c1ccc(F)cc1	6.8%
Cc1cc(C)n(-c2ccc(C(=O)N3CCc4ccccc43)cc2)n1	7.3%
COc1ccc(-c2nnc(SCC(=O)NCc3ccco3)o2)cc1	-1.5%
CCCCN1C(=O)/C(=C2\SC(N3CCCCC3)=NC2=O)c2ccccc21	-25.9%
O=C(c1ccc(N2CN(C(=O)c3ccco3)c3nc4ccccc4nc32)cc1)N1CCOCC1	53.6%[activator]
CCN(CC(=O)NC1CCS(=O)(=O)C1)c1nc(-c2ccccc2)nc2ccccc12 (stereo not drawn)	u
COc1ccc2cc(C3(C)NC(=O)N(CC(=O)NCc4ccco4)C3=O)ccc2c1 (stereo not drawn)	-16.8%
CCOC(=O)N1CCN(S(=O)(=O)c2ccc(C)cc2)C1c1ccccc1 (stereo not drawn)	-2.9%
CCOC(=O)NC(Nc1ncccn1)(C(F)(F)F)C(F)(F)F	7.8%
CC(=O)O[C@@H]1C(=O)[C@@]2(C)[C@H](O)C[C@H]3OC[C@]3(OC(C)=O)[C@@H]2[C@H](OC(=O)c2ccccc2)[C@@]2(O)C[C@H](OC(=O)[C@@H](O)[C@@H](NC(=O)c3ccccc3)c3ccccc3)C(C)=C1C2(C)C (stereo in doubt)	-3.9%[25.6 µM]
CCc1ncc(C(O)c2cccc3ccccc23)n1C (stereo not drawn)	1.1%
OC1CCN(c2ncnc3nc[nH]c23)CC1	13.8%
O=C(Cn1c(-c2cncs2)nc2ccccc21)NCCc1ccccc1	-28.0%
CCC(=O)Nc1ccc(-c2nc(-c3ccccc3)n(CC(=O)N3CCCCC3)n2)cc1	-19.5%
Cc1cc(-c2nnco2)c(C)n1-c1ccccc1	6.6%
Cn1cc(-c2nc3ccccc3[nH]2)c2ccccc21	31.6µM*
O=C(O)CC[C@@H](C(=O)O)N1C(=O)[C@@H]2[C@@H]3CC[C@H](C3)[C@@H]2C1=O	10.6%[11.4 µM]
Cc1cc2cc(CNC(=O)c3ccc4c(c3)OCO4)ccc2n1C	u
COc1ccccc1NC(=O)Nc1ccc(Br)cn1	3.2%
CCC(CC)C(=O)Nc1nnc(SCC(=O)N2CCN(c3ccccc3OC)CC2)s1	-17.5%
CCNc1nc(Oc2ccc(=O)n(C)n2)nc(N2CCOCC2)n1	1.9%
O=c1cc(-c2ccccc2)nc2nc(-c3ccccc3)[nH]n12	6.9%
CC(C)Cc1n[nH]c(=O)[nH]1	4.1%
CCn1c(CNc2ccc(F)cc2)nnc1SCC(=O)Nc1ccc(OC)cc1OC	-16.6%
O=C(CSc1nnc(CCCO)n1-c1ccccc1)Nc1nccs1	3.3%

Molecules shown so far that have a cyano group (4):
SMILES	HSD17B inhib
CCc1ccc(C2C(C#N)=C(N)SC(N)=C2C#N)s1	u
Cc1[nH]nc2c1C(c1ccc(F)cc1)C(C#N)=C(N)O2 (stereo not drawn)	-12.3%
C#CC1(O)CC(C)NCC1(C)CCC#N (stereo not drawn)	14.3%
CCS(=O)(=O)N(C)[C@@H]1c2cc(C#N)ccc2OC(C)(C)[C@H]1O	-6.7%&0.3%

(list continues)
SMILES	HSD17B inhib
Cc1cccc(OCC(=O)Nc2ccc(N3CCN(S(C)(=O)=O)CC3)cc2)c1C	2.7%
O=C(CNC(=O)C1CCCCC1)NC1=NCCS1	-3.1%
COc1ccccc1Cn1c(=O)c2ccccc2n2c(SCc3csc(C)n3)nnc12	u
CCn1c(C(C)NC(=O)c2cccc(C)c2)nc2ccccc21 (stereo not drawn)	2.1%
O=C(C1CCN(C2CC(=O)N(c3ccc(Cl)cc3)C2=O)CC1)N1CCOCC1 (stereo not drawn)	-4.8%
CCOc1ccc(N=C2NC(=O)C(CC(=O)O)S2)cc1 (stereo not drawn)	0.5%
Cc1cc(N2CCC3(CC2)OCCO3)n2nc(C)c(-c3ccc(Cl)cc3)c2n1	u
OCc1ccnc2c(O)cccc12	2.6%
CN(Cc1ccco1)C(=O)c1ccc(N2CCCC2=O)cc1	-0.3%
Cc1cc(Cl)ccc1OCC(=O)N1C(C)CCCC1C (stereo not drawn)	-6.0%
N#CC1=C(SCC(=O)NC23CC4CC(CC(C4)C2)C3)NC(=O)C(C#N)C12CCCCC2 (stereo not drawn)	-6.2%
COc1ccc(CN2CCN(C(=O)c3cccs3)CC2)c(OC)c1OC	7.7%
CC(C)(C)NC(=O)Cn1ccc(=N)c2ccccc21	u
Cc1ccc(NC(=O)c2oc3ccc(S(=O)(=O)N4CCOCC4)cc3c2C)cc1C	25.1µM*
Cc1nc2ccccc2nc1N1CCC(C)CC1	5.3%
Cc1cccc(-n2c(CCCN3C(=O)c4ccccc4C3=O)nc3ccccc3c2=O)n1	-3.0%
Cc1ccc(S(=O)(=O)N2CCCC2C(=O)Nc2nc3c(s2)CCCC3)cc1 (stereo not drawn)	-3.2%
C[N+](C)(C)c1cc2c(nn1)Nc1ccccc1S2	u
C#CCCCO/N=C1/C[C@@H](O)[C@@H](O)[C@@H]2[C@@H]3C(=O)N(c4cccc(Oc5ccccc5)c4)C(=O)[C@H]3CC[C@@H]12	-0.2%[11.4 µM]
CCN(Cc1ccccc1)C(=O)CSc1nc(C)cc2c1C(=O)OC2	-0.4%
CCOC(=O)CSC(CC)C(=O)Nc1nnc(C(C)C)s1 (stereo not drawn)	-29.2%
O=C(Nc1cccc(OC(=O)c2ccco2)c1)c1ccco1	-3.9%
CCOc1ccc(OCC)c(NC(=O)CSc2nc3c(c(=O)n(C)c(=O)n3C)n2C(C)C)c1	-1.5%
CCCCCCCCCCCCCC(=O)O	-14.4%
CC(=O)Nc1cc2c(cc1C(=O)c1ccccc1)OCCO2	4.0%
CCOC(=O)C(CC)n1cnc2c(nnn2-c2ccc(C)cc2)c1=O (stereo not drawn)	7.9%
CCOC(=O)N1CCN(CC(=O)Nc2ccc(OC)cc2)CC1	-1.6%
CN(C(=O)c1ccncc1)c1ccccc1	1.0%[11.4 µM]
COc1ccccc1-c1cc(=O)c2cccc(OC)c2o1	25.1µM*
CCOC(=O)N1CCN(S(=O)(=O)c2ccc(OCC(=O)OC)c(C)c2)CC1	7.7%
CCN(CC)CCCNC(=O)c1cn(C)c2ccc(S(=O)(=O)N(C)C)cc2c1=O	-27.2%
OCCN1CCN(C(c2cccs2)c2ccc3cccnc3c2O)CC1 (stereo not drawn)	15.8µM*
O=C(O)CCC(NS(=O)(=O)c1ccc(-c2ccccc2)cc1)C(=O)O (stereo not drawn)	-1.7%
COC(=O)[C@@]1(Cc2ccccc2)[C@H]2c3cc(C(=O)N4CCCC4)n(Cc4ccccc4)c3C[C@H]2CN1C(=O)c1ccccc1	12.1%
c1ccc2[nH]cnc2c1	-5.6%
Cc1noc(COc2ccc(OCc3nc(C)no3)cc2)n1	-5.5%
C=CCN1CC(O)=C(c2ccccc2)C1=N	15.6%
CCN(CC(=O)Nc1ccc2c(c1)OCCO2)c1nc(-c2cccnc2)nc2ccccc12	-24.0%
Cc1ccc(-n2ncc3c(NCc4ccco4)ncnc32)c(C)c1	-3.1%
CCOC(=O)CSC(CC)C(=O)Nc1nnc(CC)s1 (stereo not drawn)	6.2%
CCCOc1ccc(S(=O)(=O)n2cc(Br)c(=O)[nH]c2=O)cc1	8.5%
O=C1CC(C(=O)N2CCOCC2)C2(CCCC2)O1 (stereo not drawn)	7.1%
COc1cc(O)c2c(c1)OC(C)(C)CC2=O	6.1%
COCCNc1ccnc(-c2ccccc2CN(C)C)n1	7.5%
COc1ccc(-n2nnnc2SCC(=O)Nc2cccc(C)n2)cc1OC	0.1%
CCCCN(CCCNc1ncnc2nc[nH]c12)c1ccccc1	-10.0%
CCN(CC)S(=O)(=O)c1ccc(S(=O)(=O)Nc2cc3c(cc2C(C)=O)OCO3)cc1	-2.0%
COc1ccc(C(=O)NCC(=O)OCC(=O)NC(=O)NC2CCCCC2)cc1OC	0.8%
CC(C)Cn1c(=O)c2c(c3ccccc31)OC(C)C(=O)N2 (stereo not drawn)	0.3%
CC(=O)NC1(C(F)(F)F)NC(=O)N(CC(C)C)C1=O (stereo not drawn)	6.5%
O=CN(Cc1ccco1)C1(C(=O)NC2CCCCC2)CCCCC1	10.6%
COCCN1C(=O)c2ccc(C(=O)NCc3cccnc3)cc2C1=O	0.1%
Cc1nc2ccccc2c2oc(C(=O)N3CCN(C(=O)c4ccco4)CC3)cc12	-5.8%
